HCMV UL50-53 inh – inhibitors of HCMV UL50-UL53 nuclear egress complex interaction; 190,000 tested, 0.15% active; HTRF UL50-UL53 interaction, normalized percent inhibition; inhibition, % (test concentration not listed);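 active = both replicates at 50% or more, plus weaker picks with an unusually low signal ratio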;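 note: stock transfer was 100 nL into about 20 µL; 0% = negative control wells and 100% = wells with untagged competitor protein; inactives centre near -12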
GIV Gai3 FP – GIV-Galpha-i interaction inhibition | P08753 | Galpha-i3/FITC-GIV peptide fluorescence polarization, 90 min; hits give low values; scaled: aluminum fluoride 0%, vehicle 100% | percent of control (FP), % (test concentration not listed) | 210,000 tested, 0.42% active;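 active = replicate mean at 85% of control or lower, very high polarization wells dropped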;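 note: wells of about 15 µL received 100 nL stock; the first replicate is given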
Target sequence (P08753 whole entry, looked up): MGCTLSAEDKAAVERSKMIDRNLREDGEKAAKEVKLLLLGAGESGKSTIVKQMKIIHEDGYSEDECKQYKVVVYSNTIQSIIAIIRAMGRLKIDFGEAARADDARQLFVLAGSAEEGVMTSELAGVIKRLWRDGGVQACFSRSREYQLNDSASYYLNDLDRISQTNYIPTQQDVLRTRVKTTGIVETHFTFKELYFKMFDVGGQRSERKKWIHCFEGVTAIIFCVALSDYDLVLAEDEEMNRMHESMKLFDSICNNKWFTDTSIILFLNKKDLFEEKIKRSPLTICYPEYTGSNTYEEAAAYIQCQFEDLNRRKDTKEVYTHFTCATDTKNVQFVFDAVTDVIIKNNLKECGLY
Sa growth inh – inhibitors of Staphylococcus aureus growth at 42 °C; S. aureus RN4220 growth, OD600, 20 h; hits give low values; relative growth, % (test concentration not listed); 170,000 tested, 0.53% active; AID 720641;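 active = growth at 42 °C up to 50% and 20 or more points under that at 30 °C, or under 10% at both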;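 note: 300 nL library stock went into each well; scaled to the means of positive and negative controls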
Sa growth inh second temp – second read-out of Sa growth inh, no call of its own (marks repeat the call); relative growth, %; measured here: growth at 30 °C;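 optical density after 20 h as mean of two plates; 100% = untreated growth and lower means inhibition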
Active calls of the source: *; & = joins results of further samples. Rows are unselected. About 0.82% of those tested had a hit in this group.

Screening CCOc1ncccc1C(=O)N1CCN(C(c2ccccc2)c2ccccc2)CC1 returned HCMV UL50-53 inh 4, Sa growth inh 103 and Sa growth inh second temp 94.
O=C(O)/C=C1\NC(=O)c2ccccc21 was read as HCMV UL50-53 inh -48, GIV Gai3 FP 101, Sa growth inh 99 and Sa growth inh second temp 98.
COc1cc2c(cc1OC)C(c1ccccc1C(=O)O)=NCC2 was read as HCMV UL50-53 inh -22, Sa growth inh 72 and Sa growth inh second temp 80.
Screening CC1CCN(Cc2nc3c(c(=O)n(C)c(=O)n3C)n2Cc2ccccc2)CC1 returned HCMV UL50-53 inh -30 and GIV Gai3 FP 99.
CSc1nsc(NC(=O)Nc2ccccc2C(F)(F)F)n1 was read as HCMV UL50-53 inh 11, GIV Gai3 FP 105, Sa growth inh 70 and Sa growth inh second temp 63.
`COc1ccc(OCC(=O)Nc2noc(-c3ccccc3)n2)cc1` gave HCMV UL50-53 inh 1 and GIV Gai3 FP 96.
For CN(C)c1cccc(C(=O)Nc2nc3ccc(S(=O)(=O)N4CCCC4)cc3s2)c1 the results were GIV Gai3 FP 102, Sa growth inh 113 and Sa growth inh second temp 104.
`CCN(CC)CCOC(=O)c1ccc(NC(=O)Cn2ncc3c([nH]c4ccc(C)cc43)c2=O)cc1` gave GIV Gai3 FP 104, Sa growth inh 85 and Sa growth inh second temp 91.
`COc1cccc(-c2ccc3c(N)c(C(=O)c4ccc(F)cc4)sc3n2)c1` gave HCMV UL50-53 inh -27, GIV Gai3 FP 106, Sa growth inh 97 and Sa growth inh second temp 81.
`COc1ccccc1-n1ccnc1SCC(N)=O` gave HCMV UL50-53 inh -15, GIV Gai3 FP 104, Sa growth inh 102 and Sa growth inh second temp 91.
Cc1nnc(SCC(=O)N2CCOCC2)n1/N=C/c1ccc(Cl)cc1 was read as HCMV UL50-53 inh -17, Sa growth inh 92 and Sa growth inh second temp 94.
For CC(C)C(=O)Nc1cccc(Cl)c1 the results were HCMV UL50-53 inh -7, Sa growth inh 104 and Sa growth inh second temp 88.
For Cc1ccc(C)c(NC(=O)CSc2nccn2-c2cccc(C)c2C)c1 the results were GIV Gai3 FP 96, Sa growth inh 80 and Sa growth inh second temp 79.
`COc1ccc(CNC(=O)c2oc3c(c2C)-c2nn(Cc4ccc(Cl)cc4)cc2CC3)cc1` gave HCMV UL50-53 inh -16, GIV Gai3 FP 101, Sa growth inh 101 and Sa growth inh second temp 87.
`Cc1cccc(-n2nc(C)c(C(=O)N3CCCCC3)c2-n2cccc2)c1` gave HCMV UL50-53 inh -8, GIV Gai3 FP 98, Sa growth inh 95 and Sa growth inh second temp 84.
For CCN(CC1COc2ccccc2O1)C(=O)Cc1coc2cc3c(cc12)CCC3 (stereo not drawn) the results were HCMV UL50-53 inh -27, Sa growth inh 123 and Sa growth inh second temp 73.
Screening CCN(CC)S(=O)(=O)c1ccc2c(c1)nc(C(F)(F)F)n2CCC(=O)Nc1ccc(F)cc1 returned HCMV UL50-53 inh -17 and GIV Gai3 FP 103.
`CC(=O)N1CC(C(=O)Nc2ccc(S(=O)(=O)N3CCOCC3)cc2)Oc2ccccc21` (stereo not drawn) gave HCMV UL50-53 inh 10, Sa growth inh 103 and Sa growth inh second temp 90.
CCC(=O)NC(Nc1ccc(O)cc1)(C(F)(F)F)C(F)(F)F was read as HCMV UL50-53 inh -3, GIV Gai3 FP 98, Sa growth inh 71 and Sa growth inh second temp 87.
Screening CCCCSc1nnc2c(n1)OC(c1ccc(OC)cc1OC)N(C(C)=O)c1ccccc1-2 (stereo not drawn) returned HCMV UL50-53 inh -33 and GIV Gai3 FP 101.
For Cn1c(CN(c2ccccc2)S(C)(=O)=O)nnc1SCC(=O)Nc1cc(Cl)ccc1O the results were HCMV UL50-53 inh -15 and GIV Gai3 FP 106.
`O=S(=O)(N=P(C1CCCCC1)(N1CCOCC1)N1CCOCC1)c1ccccc1` gave HCMV UL50-53 inh -25, Sa growth inh 107 and Sa growth inh second temp 92.
Screening CCC(C(=O)Nc1cc(-c2cn3cccnc3n2)ccc1C)c1ccccc1 (stereo not drawn) returned GIV Gai3 FP 107, Sa growth inh 101 and Sa growth inh second temp 85.
For CCOc1nc2cccc(C(=O)OC(C)OC(=O)OC3CCCCC3)c2n1Cc1ccc(-c2ccccc2-c2nn[nH]n2)cc1 (stereo not drawn) the results were HCMV UL50-53 inh 25&-22, Sa growth inh 83 and Sa growth inh second temp 66.
COCC(=O)Oc1c(C)cc(Br)cc1C was read as HCMV UL50-53 inh 7, GIV Gai3 FP 97, Sa growth inh 92 and Sa growth inh second temp 120.
`Cc1ccc2nc(NC(=O)c3ccc(S(=O)(=O)N4CCCc5ccccc54)cc3)sc2c1` gave GIV Gai3 FP 103, Sa growth inh 110 and Sa growth inh second temp 102.
Cc1cc(N2CCOCC2)ccc1C=C1C(=O)c2ccccc2C1=O was read as HCMV UL50-53 inh -26, GIV Gai3 FP 123, Sa growth inh 104 and Sa growth inh second temp 88.
`Cc1ccc(Sc2nc(C)cc(C)c2S(C)(=O)=O)cc1` gave HCMV UL50-53 inh -10 and GIV Gai3 FP 100.
For O=C(Oc1c(C(=O)c2ccccc2)sc2ccccc12)c1ccco1 the results were HCMV UL50-53 inh -40, GIV Gai3 FP 101, Sa growth inh 1.7* and Sa growth inh second temp 0.8*.
Screening CCCC(=O)NCCc1cc2ccc(C)cc2[nH]c1=O returned GIV Gai3 FP 95, Sa growth inh 102 and Sa growth inh second temp 92.
Screening Cc1cc(N2CCN(C3CCCCC3)CC2)c2nncn2n1 returned HCMV UL50-53 inh -28, GIV Gai3 FP 105, Sa growth inh 92 and Sa growth inh second temp 85.
Screening Cc1nc2c(sc3nc(-c4ccccc4)ccc32)c(=O)[nH]1 returned HCMV UL50-53 inh -11 and GIV Gai3 FP 107.
For CC(C)(C)S(=O)(=O)c1ccc(NCCc2c[nH]c3ccccc23)nn1 the results were HCMV UL50-53 inh -27 and GIV Gai3 FP 99.
C=CCS(=O)(=O)Nc1ccccc1 was read as HCMV UL50-53 inh 2, GIV Gai3 FP 105, Sa growth inh 106 and Sa growth inh second temp 91.
CCC(=O)OC1=C(C(C)=O)N(Cc2ccccc2)S(=O)(=O)c2ccccc21 was read as HCMV UL50-53 inh -1, GIV Gai3 FP 102, Sa growth inh 95 and Sa growth inh second temp 83.
For Cc1ccc(C(=O)C2=C(N)OC3=C(C(=O)CC(C)(C)C3)C2c2ccccc2)cc1 (stereo not drawn) the results were GIV Gai3 FP 98, Sa growth inh 87 and Sa growth inh second temp 74.
`COc1cccc(NC(=O)C2C3C=CC(C4CC34)C2C(=O)O)c1` (stereo not drawn) gave HCMV UL50-53 inh -5, GIV Gai3 FP 109, Sa growth inh 104 and Sa growth inh second temp 116.
Screening COc1ccc(OC)c(-c2noc(N3CCN(c4ccc(C(C)=O)cc4)CC3)n2)c1 returned GIV Gai3 FP 106, Sa growth inh 101 and Sa growth inh second temp 101.
For CN(C)CCCNCc1ccco1 the results were HCMV UL50-53 inh -9, GIV Gai3 FP 99, Sa growth inh 101 and Sa growth inh second temp 85.
`COc1ccc(N(C(=O)c2snc(C(N)=O)c2N)C(C(=O)NCc2ccc(F)cc2)c2ccc(C)o2)c(OC)c1` (stereo not drawn) gave HCMV UL50-53 inh -43, GIV Gai3 FP 101, Sa growth inh 80 and Sa growth inh second temp 78.
For COc1ccc(Oc2ccc(C(F)(F)F)cc2NS(=O)(=O)c2cccc3nonc23)cc1 the results were HCMV UL50-53 inh -34, GIV Gai3 FP 106, Sa growth inh 101 and Sa growth inh second temp 85.
Screening Cc1cc(-c2ccc(C)c(S(=O)(=O)NCCc3ccccc3)c2)on1 returned GIV Gai3 FP 99, Sa growth inh 90 and Sa growth inh second temp 88.
COc1cc(S(=O)(=O)N2CCC3(CC2)OCCO3)ccc1-n1cnnn1 was read as HCMV UL50-53 inh -16, GIV Gai3 FP 101, Sa growth inh 110 and Sa growth inh second temp 82.
C=Cc1ccc(COC(=O)c2nnn(-c3ccc(C)c(F)c3)c2C)cc1 was read as HCMV UL50-53 inh -1 and GIV Gai3 FP 107.
For COc1ccc(N2CC(c3nc(-c4ccccc4C)no3)CC2=O)cc1Cl (stereo not drawn) the results were GIV Gai3 FP 102, Sa growth inh 110 and Sa growth inh second temp 85.
Screening COc1ccccc1NC(=O)CN(Cc1ccco1)C(=O)c1ccc(-n2c(C)ccc2C)cc1 returned HCMV UL50-53 inh 5, Sa growth inh 118 and Sa growth inh second temp 110.
Cc1cccc(OC(C)C(=O)O)c1 (stereo not drawn) was read as HCMV UL50-53 inh 4, Sa growth inh 94 and Sa growth inh second temp 96.
For CC(C)CN(C(=O)c1cccc(S(=O)(=O)N2CCCCC2)c1)C1CCS(=O)(=O)C1 (stereo not drawn) the results were GIV Gai3 FP 98, Sa growth inh 95 and Sa growth inh second temp 97.
Screening COc1ccc(NC(=O)Nc2cc(-c3cn4cccnc4n3)ccc2OC)cc1 returned HCMV UL50-53 inh -19, GIV Gai3 FP 103, Sa growth inh 88 and Sa growth inh second temp 95.
Screening CN(C(=O)c1ccccc1)C1CCCCC1 returned HCMV UL50-53 inh -33, GIV Gai3 FP 106, Sa growth inh 93 and Sa growth inh second temp 84.
`N#C/C(=C/c1ccco1)c1ccc(Br)cc1` gave HCMV UL50-53 inh -33, GIV Gai3 FP 146, Sa growth inh 22* and Sa growth inh second temp 66*.
COc1ccc(NC(=O)Cn2c3ncccc3c(=O)n2-c2ccccc2)cc1Cl was read as HCMV UL50-53 inh 4 and GIV Gai3 FP 106.
For O=C(/C=C/c1ccc(Br)o1)OCC(=O)c1cccc(C(F)(F)F)c1 the results were HCMV UL50-53 inh -44, Sa growth inh 123 and Sa growth inh second temp 91.
`Cc1cc(C)cc(NC(=O)C2CCCN2S(=O)(=O)c2cccc3nsnc23)c1` (stereo not drawn) gave HCMV UL50-53 inh -132, GIV Gai3 FP 103, Sa growth inh 99 and Sa growth inh second temp 85.
`Cc1ccc(C2=CC(c3ccc(C)cc3)n3nc(NS(=O)(=O)c4ccccc4)nc3N2)cc1` (stereo not drawn) gave HCMV UL50-53 inh -72 and GIV Gai3 FP 134.
CCn1cc(C(=O)NCCc2ccc(OC)c(OC)c2)c(=O)c2cc(S(=O)(=O)N3CCc4ccccc4C3)ccc21 was read as HCMV UL50-53 inh -17, GIV Gai3 FP 100, Sa growth inh 89 and Sa growth inh second temp 87.
CCCCC12CN3CC(C)(CN(C1)C3c1c[nH]c3ccccc13)C2=O (stereo not drawn) was read as HCMV UL50-53 inh -40, GIV Gai3 FP 103, Sa growth inh 104 and Sa growth inh second temp 90.
`O=C(O)CSc1cccc(Cl)c1Cl` gave HCMV UL50-53 inh -17, GIV Gai3 FP 101, Sa growth inh 117 and Sa growth inh second temp 92.
Cc1ccccc1CNc1nc2nc(C(C)C)cc(=O)n2[nH]1 was read as HCMV UL50-53 inh -14 and GIV Gai3 FP 108.
Screening Cc1cccc(C)c1NC(=O)Cn1c(=O)n(CC2CCC(C(=O)NCCc3ccccc3)CC2)c(=O)c2ccccc21 (stereo not drawn) returned HCMV UL50-53 inh -35, GIV Gai3 FP 106, Sa growth inh 108 and Sa growth inh second temp 105.
CCOc1ccccc1-c1nn2c(CSc3ccccc3)nnc2s1 was read as HCMV UL50-53 inh -17 and GIV Gai3 FP 110.
Screening O=C(Nc1ccccc1Br)N1CCCN(c2ccc(=O)n(-c3ccc(F)cc3)n2)CC1 returned HCMV UL50-53 inh -50 and GIV Gai3 FP 109.
For Cc1c(C)n(-c2ccc(F)cc2)c2ncnc(Nc3ccc(F)c(F)c3)c12 the results were HCMV UL50-53 inh -4 and GIV Gai3 FP 108.
For CCc1ccc(C2=CC(c3ccc(Br)cc3)n3ncc(C(=O)Nc4ccccc4)c3N2)cc1 (stereo not drawn) the results were HCMV UL50-53 inh -11 and GIV Gai3 FP 110.
`Cc1cc(N2CCN(CCO)CC2)n2nc(C(F)(F)F)c(-c3ccc(F)cc3)c2n1` gave HCMV UL50-53 inh -23 and GIV Gai3 FP 103.

Entries above with a furan ring, fused or not, in the order listed:
`COc1ccc(CNC(=O)c2oc3c(c2C)-c2nn(Cc4ccc(Cl)cc4)cc2CC3)cc1` gave HCMV UL50-53 inh -16, GIV Gai3 FP 101, Sa growth inh 101 and Sa growth inh second temp 87.
For CCN(CC1COc2ccccc2O1)C(=O)Cc1coc2cc3c(cc12)CCC3 (stereo not drawn) the results were HCMV UL50-53 inh -27, Sa growth inh 123 and Sa growth inh second temp 73.
For O=C(Oc1c(C(=O)c2ccccc2)sc2ccccc12)c1ccco1 the results were HCMV UL50-53 inh -40, GIV Gai3 FP 101, Sa growth inh 1.7* and Sa growth inh second temp 0.8*.
For CN(C)CCCNCc1ccco1 the results were HCMV UL50-53 inh -9, GIV Gai3 FP 99, Sa growth inh 101 and Sa growth inh second temp 85.
`COc1ccc(N(C(=O)c2snc(C(N)=O)c2N)C(C(=O)NCc2ccc(F)cc2)c2ccc(C)o2)c(OC)c1` (stereo not drawn) gave HCMV UL50-53 inh -43, GIV Gai3 FP 101, Sa growth inh 80 and Sa growth inh second temp 78.
Screening COc1ccccc1NC(=O)CN(Cc1ccco1)C(=O)c1ccc(-n2c(C)ccc2C)cc1 returned HCMV UL50-53 inh 5, Sa growth inh 118 and Sa growth inh second temp 110.
`N#C/C(=C/c1ccco1)c1ccc(Br)cc1` gave HCMV UL50-53 inh -33, GIV Gai3 FP 146, Sa growth inh 22* and Sa growth inh second temp 66*.
For O=C(/C=C/c1ccc(Br)o1)OCC(=O)c1cccc(C(F)(F)F)c1 the results were HCMV UL50-53 inh -44, Sa growth inh 123 and Sa growth inh second temp 91.

High-throughput results as filed in PubChem.
